GIRK2 activ = opens human GIRK2 potassium channels. P48051. 63,000 tested, 0.05% active. AID 1259325. calls only for hits at 25 µM. HEK293-GIRK2 thallium flux, Thallos fluorescence;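 active means among the strongest 0.2% of first-round signals and kept after retests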;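 further: first round at about 10 µM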
Target sequence (P48051 whole entry, looked up): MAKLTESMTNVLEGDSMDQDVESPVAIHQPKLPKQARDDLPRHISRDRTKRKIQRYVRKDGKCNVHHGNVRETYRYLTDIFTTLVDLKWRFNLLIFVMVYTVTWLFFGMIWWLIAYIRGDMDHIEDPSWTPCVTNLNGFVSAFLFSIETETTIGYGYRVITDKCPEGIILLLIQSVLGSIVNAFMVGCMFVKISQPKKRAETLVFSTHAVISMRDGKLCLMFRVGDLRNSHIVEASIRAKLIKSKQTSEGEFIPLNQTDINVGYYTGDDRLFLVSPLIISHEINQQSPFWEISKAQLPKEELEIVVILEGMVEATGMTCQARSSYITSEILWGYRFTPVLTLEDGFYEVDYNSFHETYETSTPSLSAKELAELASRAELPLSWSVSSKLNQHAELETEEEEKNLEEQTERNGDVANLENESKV
Calls only; i = inactive. Not all compounds are listed; rates above refer to the full screens.

GIRK2 activ	SMILES
i	Cc1nc2ccccc2n1CC1CCN(CC(=O)c2ccc3c(c2)NC(=O)CO3)CC1
i	CCCCN(C1CCS(=O)(=O)C1)S(=O)(=O)c1ccc(Cl)c(Cl)c1 (configuration not stated)
i	O=C(Nc1ccc2c(c1)OCCO2)C1CCCN(Cc2nc(-c3ccncc3)no2)C1 (configuration not stated)
i	COc1cccc(-c2nc(CSc3nc4ccccc4n4c(C)nnc34)c(C)o2)c1OC
i	Cc1ccc(-c2csc3c(=O)n(CC(=O)Nc4ccccc4Cl)cnc23)cc1
i	COc1ccc(F)cc1S(=O)(=O)NCC(c1ccco1)N1CCc2ccccc2C1 (configuration not stated)
i	O=C(Nc1ccc(S(=O)(=O)Nc2ncccn2)cc1)C1COCC(=O)N1Cc1ccccc1 (configuration not stated)
i	COc1ccccc1C(O)Cn1cc(C(=O)N2CCN(c3cccc(C)c3C)CC2)nn1 (configuration not stated)
i	Cn1c(=O)[nH]c(=O)c2c1nc(NCc1ccccc1)n2CC(=O)c1ccccc1
i	COC(=O)c1scc(-c2ccc(C)cc2)c1S(=O)(=O)Nc1cc(OC)c(OC)c(OC)c1
i	Cn1nc(CNS(=O)(=O)c2ccc3c(c2)CCCC3)cc1-c1ccccn1
i	COc1ccc(NC(=O)CN2C(=O)N(C)C3(CCCCC3)C2=O)c(OC)c1
i	COc1ccc(CNC(=O)c2ccc3c(=O)n(-c4ccc(C)c(C)c4)c(N4CCOCC4)nc3c2)cc1
i	CCCn1c(C(=O)O)cc2c(=O)n(C)c(=O)n(C)c21
i	Cc1nc(-n2nc(C3CC3)cc2NC(=O)C2COc3ccccc3O2)[nH]c(=O)c1C (configuration not stated)

GIRK2 activ	SMILES
i	Cc1noc(CNC(=O)C2CCN(C(=O)c3cnccn3)CC2)n1
i	COc1ccccc1CC(=O)NCc1sc(-c2ccccc2F)nc1C
i	COc1ccccc1NC(=O)CSc1nc2c(sc(=S)n2-c2ccccc2)c(=O)[nH]1
i	COc1ccc(-c2cc3nc(C)cc(Nc4ccc(C(N)=O)cc4)n3n2)cc1OC
i	COc1ccc(C(=O)Nc2ccc3c(c2)CCC(=O)N3Cc2ccccc2)cc1
i	Cc1ccc(C)c2sc(N(C)CC(=O)N3CCc4ccccc4C3)nc12
i	COC(=O)c1c(NCc2ccc(OC)cc2)c2cc(Cl)ccc2[nH]c1=O
i	O=C(c1cc2ccccc2o1)N1CCC2(CC1)OCCS2
i	COc1ccc(S(=O)(=O)CCCC(=O)N(Cc2ccccc2)c2nc3ccc(F)cc3s2)cc1
i	CCN1CCN(CC(=O)NCc2ccccc2Cl)C(=O)C1=O
i	O=C(NCCc1ccoc1)NC(c1ccccc1)c1ccccc1
i	Cc1cc(C)n(-c2ccc(=O)n(CCNC(=O)C3CC(=O)N(c4ccc(C)c(C)c4)C3)n2)n1 (configuration not stated)
i	CCCCCNC(=O)c1sccc1S(=O)(=O)N(C)c1ccc(OCC)cc1
i	O=C1NC(=NCc2c(Cl)cccc2Cl)S/C1=C\c1ccc2ncccc2c1
i	COc1ccc(N/C=C(\C#N)c2nc3ccccc3s2)c(OC)c1

GIRK2 activ	SMILES
i	O=C(Nc1ccc(-n2cnnn2)cc1)c1cc(-c2ccc(F)cc2)n[nH]1
i	CCN(CC)C(=O)CN1CCN(c2ccc(C)cc2)C1=O
i	Cc1ccc(-n2nnc(C(=O)NC3CCCC3)c2-c2ccncc2)cc1C
i	O=C(Cn1cnc2c(sc3cccc(Cl)c32)c1=O)Nc1ccc2c(c1)OCCO2
i	COCCN(Cc1ccoc1)C(=O)c1ccc2c(c1)OCO2
i	Cc1cc(C(=O)N2CCC(Oc3nc4ccccc4s3)CC2)on1
i	CC(C(O)c1ccc(O)cc1)N1CCC(Cc2ccccc2)CC1 (configuration not stated)
i	Cc1ccc(NC(=O)C(=O)NCCC(O)c2ccoc2)cc1F (configuration not stated)
i	CC(=O)Nc1ccc(S(=O)(=O)Nc2ccccc2N2CCNC(=O)C2)cc1
i	O=C(c1ccc(=O)[nH]c1)N1CC(c2nc(-c3cccs3)no2)C1
i	Cc1cc(NC(=O)c2ccc3c(c2)OCO3)n(-c2nc3c(cnn3-c3cccc(C)c3C)c(=O)[nH]2)n1
i	Cc1ccc(S(=O)(=O)Nc2ccc3c(c2)N(S(=O)(=O)c2ccc(C)cc2)CCC3)cc1
i	CCc1ccc(Cc2cnc(NC(=O)c3c(C)coc3C)s2)cc1
i	O=S(=O)(NCC#CCN1CCCC1)c1cccc2cccnc12
i	CC1CCN(C(=O)c2cn(-c3cc(N4CCSCC4)ncn3)cn2)CC1

GIRK2 activ	SMILES
i	Cc1ccc2oc(=O)c(S(=O)(=O)N3CCN(C)CC3)cc2c1
i	CCc1ccccc1NC(=O)Cn1c(C)cc(C)c(-c2nc(-c3ccc(Cl)cc3)no2)c1=O
i	Cc1cn2c3c(=O)n(Cc4ccccc4)c(=O)n(C)c3nc2n1CCCn1ccnc1
i	CCn1c(SCC(=O)N2CCOCC2)nc2nc(-c3ccccc3)ncc2c1=O
i	Cc1cc(C)n(-c2cc(N3CCN(C(=O)c4ccccc4C)CC3)nc(C)n2)n1
i	COc1ccccc1C1(CNS(=O)(=O)c2ccc(NC(=O)C(C)C)cc2)CCOCC1
i	Cc1csc(C(=O)N2CCOC(c3cc(Cl)cc(Cl)c3)C2)c1 (configuration not stated)
i	Cc1cccc(-n2cc(C(=O)OCc3cc(=O)n4ccccc4n3)c3ccccc3c2=O)c1
i	Cc1noc(NS(=O)(=O)c2ccc(NC(=O)C3CSCCC(=O)N3)cc2)c1C (configuration not stated)
i	O=C(Cn1ccc2ccccc21)NCCn1cnc(-c2ccccc2)cc1=O
i	COC(=O)c1[nH]c(C)c(C(O)=C2C(=O)C(=O)N(CCN(C)C)C2c2ccc(C)cc2)c1C (configuration not stated)
i	COc1ccc(CCC(=O)Nc2ccc3c(c2)N(S(=O)(=O)c2ccc(F)cc2)CCC3)cc1
i	O=C(CS(=O)(=O)Cc1ccccc1)Nc1nc(-c2cc3ccccc3o2)cs1
i	Cc1noc(CNC(=O)C2CCN(S(=O)(=O)c3cccs3)CC2)n1
i	Cc1[nH]nc(-c2ccc(O)cc2O)c1-c1ccc(Cl)cc1

GIRK2 activ	SMILES
i	C#CCOCC1CCN(S(=O)(=O)c2ccccc2)CC1
i	COCCN(Cc1ccncc1)C(=O)c1ccccc1Br
i	COc1ccc(-c2c(-c3ccc(OCCN4CC(C)OC(C)C4)cc3O)n[nH]c2C)cc1 (configuration not stated)
i	O=C(Nc1cccs1)N1CCN(Cc2nnnn2-c2cccc(F)c2)CC1
i	CC1(C)O[C@@]2(C)CC[C@@H]1CC2OC1OC(CO)C(O)C(O)C1O (some centres not stated)
i	CC/C=C\C/C=C\C/C=C\CCCCCCCC(=O)NCCO
i	Cc1cn2c3c(=O)n(C/C=C/c4ccccc4)c(=O)n(C)c3nc2n1-c1ccccc1O
i	COCCOCC1CCN(C(=O)CNC(=O)c2ccccc2)CC1
i	CNc1nn(CC(=O)N2CCN(c3ccc(F)cc3)CC2)c(N)c1-c1nc(-c2ccccc2)no1
i	Cc1cc(-c2ccccc2Cl)oc1-c1nn2c(-c3ccoc3C)nnc2s1
i	COc1ccccc1-c1c(-c2ccc(OCC(=O)NN)cc2O)n[nH]c1C(F)(F)F
i	COc1ccc(C)cc1NC(=O)Cc1cc(=O)[nH]c(SCc2ccc(F)cc2)n1
i	CCOc1ccc(NC(=O)c2cn(Cc3ccc(NC(=O)c4ccccc4OC)cc3)cn2)cc1
i	COC(=O)Cn1c(=O)c2c(nc3n(-c4cc(C)cc(C)c4)c(C)cn23)n(C)c1=O
i	CCOc1ccc(N(C)S(=O)(=O)c2ccsc2C(=O)NC(C)CCc2ccccc2)cc1 (configuration not stated)

GIRK2 activ	SMILES
i	CC(=O)N1CCC(C(=O)N2CCOCC2CN(C)C)CC1 (configuration not stated)
i	O=C(NCC1CC1)C1CCN(c2nc3ccsc3c(=O)n2Cc2ccccc2)CC1
i	Cc1cc(-n2nnc(C(=O)N3CCN(c4ccccc4C)CC3)c2C)ccc1Br
i	COc1ccccc1-c1cc(C(=O)N2CCOCC2CN(C)C)[nH]n1 (configuration not stated)
i	COc1cccc(NC(=O)c2cccc(S(=O)(=O)N3CCOCC3)c2)c1
i	Cc1ccc2c(Nc3ccc(C)c(F)c3)c(-c3nc(C)no3)cnc2n1
i	COc1ccc(OCc2ccc(-c3nc(C#N)c(NCC4CCCO4)o3)o2)cc1 (configuration not stated)
i	O=C(/C=C/c1ccc2c(c1)OCO2)NCC1CCN(Cc2ccsc2)CC1
i	C=CCn1c(=O)c2c(nc3n(-c4ccc(OC)cc4OC)c(-c4ccccc4)cn23)n(C)c1=O
i	O=C(c1cc2ccccc2o1)N1CCC(Oc2ncccc2Cl)CC1
i	COc1cccc(C(=O)N2CCC(Oc3nc4c(C)ccc(C)c4s3)CC2)c1OC
i	O=C(Nc1ccccc1Cl)c1cc(OCc2ccccc2)no1
i	Cc1cccc2c(=O)c(-c3ccc4c(c3)OCO4)c(NC(=O)C(C)C)oc12
i	COc1ccc(N2C(=O)C3N=NN(CC(=O)Nc4ccc(C(C)C)cc4)C3C2=O)cc1 (configuration not stated)
i	O=C(CCSc1ccccc1)N1CCC2(CC1)OCCS2

GIRK2 activ	SMILES
i	O=C(c1cc(=O)c(OCc2ccc(F)cc2)co1)N1CCc2ccccc2C1
i	Cc1cc(C)c(NC(=O)Cn2nc3c(Oc4ccccc4C)nccn3c2=O)c(C)c1
i	COc1ccc(OC)c(-n2c(C)c(C)n3c4c(=O)n(CC(C)=O)c(=O)n(C)c4nc23)c1
i	Cc1cc(C)cc(NC(=O)NC2CC(=O)N(C3CC3)C2)c1 (configuration not stated)
i	O=C(NCCc1ccc(Cl)cc1)c1ccc2c(=O)nc3c(-c4ccccc4F)n[nH]n3c2c1
i	COc1ccc(S(=O)(=O)NCCN2CCN(c3ccc(Cl)cc3)CC2)cc1F
i	COc1cccc(NC(=O)c2cn(Cc3ccc(NC(=O)C4CCCCC4)cc3)cn2)c1
i	O=C(Cc1ccccc1Cl)NCCc1nc2c(c(C(F)(F)F)n1)CCCC2
i	O=S(=O)(NCc1ncc(-c2ccccc2)[nH]1)c1cccs1
i	CCn1c(C)nnc1SCc1nc(-c2cccc(Cl)c2)oc1C
i	Cc1ccc(S(=O)(=O)c2c(C)cc(C)n(CC(=O)Nc3cccc(Cl)c3C)c2=O)cc1
i	O=C(/C=C/c1cc(Cl)cc(Cl)c1O)c1ccccc1
i	O=C(CCC(=O)N1CCN(S(=O)(=O)C2CC2)CC1)c1ccc(Cl)cc1
i	CCOc1ccc(N(C)S(=O)(=O)c2ccsc2C(=O)NCCc2ccccc2)cc1
i	COc1ccc(-c2noc(-c3ccc(=O)n(Cc4c(C)noc4C)c3)n2)cc1F

GIRK2 activ	SMILES
i	COc1ccc(CCNC(=O)Cn2cnc3c(c2=O)CCCC3)cc1OC
i	C=CCCC(=O)NCC#CCOc1ccccc1OC
i	CCOc1ccc(OCCNS(=O)(=O)c2ccc(Cl)cc2)cc1
i	CC(O)CCCC(O)/C=C/C1=C(C/C=C\CCCC(=O)O)C(=O)CC1 (configuration not stated)
i	Cc1ccc(-n2ncc3c(=O)n(CC(=O)N4CCc5ccccc54)cnc32)cc1C
i	COC(=O)c1ccc(NC(=O)c2cc(-c3ccc(F)cc3)c[nH]2)cc1
i	COc1ccccc1Oc1coc2c3c(ccc2c1=O)OCN(CCN1CCOCC1)C3
i	O=C(Nc1ccccc1-c1ccc(=O)[nH]n1)c1ccc2c(c1)OCO2
i	CCOC(=O)c1cccc(Nc2ncccc2S(=O)(=O)NC)c1
i	COc1ccc(C(C)=O)cc1NC(=O)C1=Cc2cc(Cl)cc(OC)c2OC=C1
i	O=C(c1ccc2nsnc2c1)N1CCC2(CC1)OCCCO2
i	COCCCn1c(C(=O)NCc2cccnc2)cc2c(=O)n(C)c(=O)n(C)c21
i	O=S(=O)(NCC1(CO)CC1)c1ccc(N2CCCCS2(=O)=O)cc1
i	Cc1ccc(S(=O)(=O)N(C)c2c(C)ccc(S(=O)(=O)NC3CCCCC3)c2C)cc1
i	O=C(NCCCOc1cccc2cccnc12)c1cc(-c2ccccc2)on1

GIRK2 activ	SMILES
i	Cc1ccc(C)c(S(=O)(=O)NCCNc2cc(-n3cccn3)nc(C)n2)c1
i	CN(C)c1cccc(C(=O)NCC2CCN(Cc3ccsc3)CC2)c1
i	Cc1cc(C(=O)N2CCOCC2)n(CC(=O)NCCc2ccc(F)cc2)n1
i	O=S(=O)(c1ccccc1)c1nc(S(=O)(=O)c2ccc(Cl)cc2)c(Cl)s1
i	O=C(/C=C/c1ccccc1)N1CCC(CSc2ccccn2)CC1

Of the compounds above, 14 contain a thiophene ring, fused or not.
GIRK2 activ	SMILES
i	Cc1ccc(-c2csc3c(=O)n(CC(=O)Nc4ccccc4Cl)cnc23)cc1
i	COC(=O)c1scc(-c2ccc(C)cc2)c1S(=O)(=O)Nc1cc(OC)c(OC)c(OC)c1
i	CCCCCNC(=O)c1sccc1S(=O)(=O)N(C)c1ccc(OCC)cc1
i	O=C(Cn1cnc2c(sc3cccc(Cl)c32)c1=O)Nc1ccc2c(c1)OCCO2
i	O=C(c1ccc(=O)[nH]c1)N1CC(c2nc(-c3cccs3)no2)C1
i	Cc1csc(C(=O)N2CCOC(c3cc(Cl)cc(Cl)c3)C2)c1 (configuration not stated)
i	Cc1noc(CNC(=O)C2CCN(S(=O)(=O)c3cccs3)CC2)n1
i	O=C(Nc1cccs1)N1CCN(Cc2nnnn2-c2cccc(F)c2)CC1
i	CCOc1ccc(N(C)S(=O)(=O)c2ccsc2C(=O)NC(C)CCc2ccccc2)cc1 (configuration not stated)
i	O=C(NCC1CC1)C1CCN(c2nc3ccsc3c(=O)n2Cc2ccccc2)CC1
i	O=C(/C=C/c1ccc2c(c1)OCO2)NCC1CCN(Cc2ccsc2)CC1
i	O=S(=O)(NCc1ncc(-c2ccccc2)[nH]1)c1cccs1
i	CCOc1ccc(N(C)S(=O)(=O)c2ccsc2C(=O)NCCc2ccccc2)cc1
i	CN(C)c1cccc(C(=O)NCC2CCN(Cc3ccsc3)CC2)c1

Screens deposited in PubChem by Vanderbilt University.
